# Bioassay records (PubChem)
# eIF4H inh: human eIF4H binding inhibitors, primary screen, translation initiation inhibitor project, biochemical, uHTS, fluorescence polarization | eIF4H fluorescence polarization binding assay | Eukaryotic translation initiation factor 4H (Homo sapiens), Q15056 | AID 2012, 2009 | inhibition, % at 35 µM | 290,000 tested, 0.94% active;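 active means 50% or more with normal probe brightness, or confirmed in later tests; inconclusive means above 50% with abnormal brightness, or retests that disagree; inactive means below 50% or failed in later tests; about a fifth of its hits are not listed in these tables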;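 further: calls also rest on retests at 20 µM and on dose response follow-up; 0% = protein and probe with vehicle and 100% = probe without protein; strong numbers were not always called active; many hits fall short of the cut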
# Rce1 inh: yeast Rce1p protease inhibitors, primary screen, biochemical, fluorescence, cell-free homogeneous; CAAX prenyl protease 2 (Saccharomyces cerevisiae (strain ATCC 204508 / S288c)), Q03530; yeast membranes, quenched prenylated peptide cleavage fluorescence; calls only; 290,000 tested, 0.27% active;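 active means fall in fluorescence gain of 50% or more versus controls, with final raw signal at or below 3038400; inconclusive means same 50% fall but final raw signal above 3038400; inactive means fall in fluorescence gain under 50%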;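 further: plate controls were neutral control wells for no effect and wells lacking membranes for full effect; tested at 10 µM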
# Target sequence (Q03530 whole entry, looked up): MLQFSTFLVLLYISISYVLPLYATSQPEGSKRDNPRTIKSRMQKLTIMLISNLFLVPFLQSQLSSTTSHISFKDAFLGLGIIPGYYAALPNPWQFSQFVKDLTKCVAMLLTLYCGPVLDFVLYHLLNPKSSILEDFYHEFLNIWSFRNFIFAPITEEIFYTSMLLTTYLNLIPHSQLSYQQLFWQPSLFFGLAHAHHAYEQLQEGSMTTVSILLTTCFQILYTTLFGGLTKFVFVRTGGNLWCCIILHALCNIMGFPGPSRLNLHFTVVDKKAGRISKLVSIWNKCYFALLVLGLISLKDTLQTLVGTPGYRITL
# MT1-MMP act inh: blockers of MT1-MMP proenzyme processing, primary screen, HT1080 RFP-PRO-GFP cells, GFP/RFP fluorescence | 360,000 tested, 0.061% active | GFP/RFP ratio change, % at 20 µM | GFP/RFP ratio fluorescence, overnight; percent of plate control window, DMSO zero;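 active means GFP/RFP ratio change of at least 30% with cell ATP level not reduced by more than half and red fluorescence within 50% of control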; further: strong numbers were not always called active
#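 Assay system: HT1080 RFP-PRO-GFP cells. Benchmarks: DMSO vehicle wells and RFP-L50D-GFP reporter cell wells. Times: overnight cell settling, then overnight compound exposure, 37 °C, 5% CO2. Compound: 20 µM single dose, 1% DMSO. Read-out basis: GFP/RFP fluorescence ratio.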
# PABP FP inh: PABP poly(A) RNA binding inhibitors, primary screen, biochemical, fluorescence polarization, uHTS; inhibition, % at 35 µM; AID 2014, 2009; 290,000 tested, 1% active;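 active means 50% or more with normal probe brightness, or confirmed in later tests; inconclusive means above 50% with abnormal brightness, or retests that disagree; inactive means below 50% or failed in later tests; about a fifth of its hits are not listed in these tables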;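 further: calls also rest on retests at 20 µM and on dose response follow-up; controls were probe without protein and protein plus probe with vehicle; some compounds called inactive have numbers as strong as hits; many hits fall short of the cut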
# Target sequence (P11940 whole entry, looked up): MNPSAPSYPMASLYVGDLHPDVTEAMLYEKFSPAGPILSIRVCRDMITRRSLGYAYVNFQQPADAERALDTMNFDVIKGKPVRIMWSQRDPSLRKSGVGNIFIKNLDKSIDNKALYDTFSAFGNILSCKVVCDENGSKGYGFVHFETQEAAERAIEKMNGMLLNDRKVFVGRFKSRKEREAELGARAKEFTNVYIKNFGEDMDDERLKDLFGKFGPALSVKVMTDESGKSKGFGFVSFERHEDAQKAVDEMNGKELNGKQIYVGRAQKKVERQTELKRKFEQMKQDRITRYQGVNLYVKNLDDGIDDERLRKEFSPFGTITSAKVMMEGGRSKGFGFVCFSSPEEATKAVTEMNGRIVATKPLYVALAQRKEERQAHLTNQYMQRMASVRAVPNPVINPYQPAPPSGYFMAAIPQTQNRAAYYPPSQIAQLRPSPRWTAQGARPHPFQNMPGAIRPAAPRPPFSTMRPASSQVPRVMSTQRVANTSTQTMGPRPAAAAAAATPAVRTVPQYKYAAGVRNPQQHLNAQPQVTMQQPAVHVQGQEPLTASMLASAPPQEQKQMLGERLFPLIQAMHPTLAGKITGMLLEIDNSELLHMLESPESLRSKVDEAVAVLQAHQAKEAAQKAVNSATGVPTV
# HIV Env fusion: inhibitors of HIV-1 Env-driven cell-cell fusion, primary screen, HeLa-JRFL effector, CEM21 target cells, luciferase | inhibition, % at 12.3 µM | 360,000 tested, 1.1% active;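 active means mean replicate inhibition score of at least 50 and every replicate individually at or above 50; inconclusive means only one of the two criteria met; inactive means mean below 50 and not all replicates reaching 50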;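 further: 0% = plate neutral controls and 100% = maraviroc near 300 nM; one replicate is shown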
# Yeast UUG start: modulators of yeast start codon fidelity, primary screen, whole organism, S. cerevisiae, single point, plate reader; S. cerevisiae UUG-firefly luciferase reporter, luminescence/redox ratio; activity score, % at 18.7 µM; 350,000 tested, 0.13% active; AID 602363, 2012;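 active means replicate mean at a twofold rise or more, about +100% in these data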;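 further: firefly luciferase made from a UUG start codon reports start codon fidelity; reporter light over untreated wells divided by growth signal over untreated wells; some hits fall short of that in this replicate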
# CSC inhib: cancer stem cell viability inhibitors, primary screen, luminescence. cancer stem cell-like cells viability. inhibition, % at 7.5 µM. 300,000 tested, 1.1% active. AID 2717, 2010;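 active means mean at 75% or more and at least half the replicates too; inconclusive means mean and replicates disagree; tested in HMLE shEcad cells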;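 further: 0% = median of negative and 100% = median of positive control wells; the first replicate is given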
# MT1-MMP act inh RFP: recorded beside MT1-MMP act inh, whose call it bears; RFP signal change, %; measured here: RFP expression control read;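 0 = vehicle wells; hits needed this value within 50% of zero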
# * marks the source's active call; other numbers are inactive results; i = inactive; ? = inconclusive; · = no result given; + = active, no number.
SMILES,eIF4H inh,Rce1 inh,MT1-MMP act inh,MT1-MMP act inh RFP,PABP FP inh,HIV Env fusion,Yeast UUG start,CSC inhib
CCCC(=O)Nc1sc(C)c(-c2ccc(OC)cc2)c1C#N,2,i,0,2,-4,-33,-1,-15
Cn1cnc(C(=O)NCc2ccccc2)c1C(=O)NCc1ccccc1,·,·,-3,1,·,-13,12,21
Cc1noc(C)c1COc1ccccc1C(=O)N1CCN(S(=O)(=O)c2ccccc2F)CC1,·,i,-1,-2,·,·,·,2
S=C(NCc1ccco1)Nc1ccccc1Cl,0,i,2,-7,33,15,-26,-1
Cc1ccccc1OCCC(=O)OCC(=O)NCCc1ccc(S(N)(=O)=O)cc1,·,·,-3,1,·,-1,13,·
Cc1ccnc(N/C=C(/NC(=O)c2ccccc2)C(=O)N/N=C\c2ccc(F)cc2)n1,-9,i,3,4,2,·,-33,-4
COc1ccc(F)cc1S(=O)(=O)NCC(c1ccco1)N1CCc2ccccc2C1 (stereo unspecified),·,i,1,-4,·,16,·,-4
COc1ccc(OC)c(Cc2nnc(CCC(=O)NC3C4CC5CC(C4)CC3C5)o2)c1 (stereo unspecified),-15,i,3,3,16,27,·,-3
O=C(Cn1nnc(-c2ccncc2)n1)N(C1CCCCC1)C1CCCCC1,2,i,-4,-4,0,·,-14,-5
CCCCn1c(=O)[nH]c(=O)c2c1nc(-c1ccc(OC)c(Br)c1)n2CC(C)C,0,+,-3,-8,12,-15,7,23

# Sorted by the number under HIV Env fusion (lowest first): seven of the compounds above.
SMILES	HIV Env fusion
CCCC(=O)Nc1sc(C)c(-c2ccc(OC)cc2)c1C#N	-33
CCCCn1c(=O)[nH]c(=O)c2c1nc(-c1ccc(OC)c(Br)c1)n2CC(C)C	-15
Cn1cnc(C(=O)NCc2ccccc2)c1C(=O)NCc1ccccc1	-13
Cc1ccccc1OCCC(=O)OCC(=O)NCCc1ccc(S(N)(=O)=O)cc1	-1
S=C(NCc1ccco1)Nc1ccccc1Cl	15
COc1ccc(F)cc1S(=O)(=O)NCC(c1ccco1)N1CCc2ccccc2C1 (stereo unspecified)	16
COc1ccc(OC)c(Cc2nnc(CCC(=O)NC3C4CC5CC(C4)CC3C5)o2)c1 (stereo unspecified)	27

# Next compounds.
SMILES,eIF4H inh,Rce1 inh,MT1-MMP act inh,MT1-MMP act inh RFP,PABP FP inh,HIV Env fusion,Yeast UUG start,CSC inhib
O=C(NCc1ccncc1)c1ccc2nc(Cc3ccccc3F)oc2c1,-9,i,1,-9,2,1,-7,14
CCOC(=O)Cn1nc(/C=C/c2ccc(C(C)C)cc2)ccc1=O,-2,i,6,0,-4,·,-1,·
CC1(C)C(=O)OC(c2ccc([N+](=O)[O-])cc2)C(C)(C)C1=O (stereo unspecified),-6,i,3,2,6,17,-11,-9
CC(C)C1Cc2c(C#N)c(N)n(C)c(=S)c2CO1 (stereo unspecified),16,i,3,2,8,-48,1,-9
CCn1c(SCC(=O)N/N=C/c2ccc(C)o2)nnc1-c1ccc(C)cc1,29,i,6,6,-4,-8,·,-4
CCOC(=O)/C(C#N)=C1/SC(CC)C(=O)N1c1ccc(Br)cc1 (stereo unspecified),4,i,3,8,10,-43,-20,-2
CCN(CC)c1ccc(/C=N/N2C(=O)c3ccccc3C2=O)c(O)c1,2,i,-4,5,11,·,-13,-25
CN(C)CCNc1ncnc2c1ncn2[C@H]1CN(Cc2ccncc2)C[C@@H](CO)O1,·,·,0,9,·,15,-23,·
O=C1C(Cl)=C(N2CCOCC2)C(=O)N1c1ccccc1Cl,-2,i,3,2,0,·,-30,-10
CC1CCN(C(c2nnnn2CCc2ccccc2)C(C)C)CC1 (stereo unspecified),2,i,-14,-16,21,11,·,-15
CCOc1ccc(Br)cc1S(=O)(=O)Nc1cccc(S(=O)(=O)N(C)c2ccccc2)c1,2,i,0,0,3,19,-10,26
CC(OC(=O)c1ccccc1OCc1ccc(Cl)cc1)C(N)=O (stereo unspecified),0,i,2,2,-2,6,·,·
COc1ccc(-c2nc3ccccc3c(=O)n2CCOc2c(C)cccc2C)cc1,2,i,-9,-3,-5,4,·,9
COc1ccc2[nH]cc(CCNS(=O)(=O)c3ccc(F)cc3)c2c1,2,i,1,-2,-2,-72,-12,0
Cc1cc([N+](=O)[O-])ccc1NC(=S)NC(=O)Cc1ccccc1,5,i,-1,-4,-3,·,·,7
O=C(Nc1cccc(Cl)c1)c1ccc(F)c(S(=O)(=O)N2CCN(c3ccccn3)CC2)c1,1,i,-12,-27,-4,·,·,12
Cc1cc(C)cc(NC(=S)Nc2ccc3cn[nH]c3c2)c1,24,i,5,4,-12,-7,·,-15
COc1ccc(OC)c(/C=C2\Oc3cc(OCC(=O)N4CCC[C@H]4C(=O)O)ccc3C2=O)c1,-12,i,-63,2,15,·,16,3
COc1ccc(OC)c(C2C(C(=O)c3cccs3)=C(O)C(=O)N2CCN2CCOCC2)c1 (stereo unspecified),3,i,2,5,10,6,-4,-2
CCOC(=O)C1CCN(c2ncnc3c2[nH]c2cccc(OC)c23)CC1,0,?,5,-5,5,·,-10,-9

# Shown with each value named: part of the list above
> CCOc1ccc(Br)cc1S(=O)(=O)Nc1cccc(S(=O)(=O)N(C)c2ccccc2)c1
  eIF4H inh: 2
  Rce1 inh: i
  MT1-MMP act inh: 0
  MT1-MMP act inh RFP: 0
  PABP FP inh: 3
  HIV Env fusion: 19
  Yeast UUG start: -10
  CSC inhib: 26

> CC(OC(=O)c1ccccc1OCc1ccc(Cl)cc1)C(N)=O (stereo unspecified)
  eIF4H inh: 0
  Rce1 inh: i
  MT1-MMP act inh: 2
  MT1-MMP act inh RFP: 2
  PABP FP inh: -2
  HIV Env fusion: 6
  Yeast UUG start: ·
  CSC inhib: ·

> Cc1cc([N+](=O)[O-])ccc1NC(=S)NC(=O)Cc1ccccc1
  eIF4H inh: 5
  Rce1 inh: i
  MT1-MMP act inh: -1
  MT1-MMP act inh RFP: -4
  PABP FP inh: -3
  HIV Env fusion: ·
  Yeast UUG start: ·
  CSC inhib: 7

> COc1ccc2[nH]cc(CCNS(=O)(=O)c3ccc(F)cc3)c2c1
  eIF4H inh: 2
  Rce1 inh: i
  MT1-MMP act inh: 1
  MT1-MMP act inh RFP: -2
  PABP FP inh: -2
  HIV Env fusion: -72
  Yeast UUG start: -12
  CSC inhib: 0

# (listing goes on)
SMILES,eIF4H inh,Rce1 inh,MT1-MMP act inh,MT1-MMP act inh RFP,PABP FP inh,HIV Env fusion,Yeast UUG start,CSC inhib
Cc1ccccc1OCC(=O)OCC(=O)NC1CCCC(C)C1C (stereo unspecified),·,·,1,5,·,2,-22,·
O=C(Nc1ccc(Br)cc1)c1cccc2c1C(=O)N(C1CCCCC1)C2,-12,i,1,2,-1,11,-18,-4
O=C(Cc1ccccn1)c1ccccc1,·,i,1,5,·,-32,-6,-9
COc1ccc(C(=O)Nc2nc(N)n(-c3ccccc3)n2)cc1,2,i,3,4,-4,-12,·,-1
CCOC(=O)CCc1c(C)c2ccc(OCC(=O)OC(C)C)cc2oc1=O,-13,i,8,-4,-1,-4,0,-11
CC(C)(C)OC(=O)Nc1ccc([C@@H](NC(=O)OC(C)(C)C)C(=O)OC(C)(C)C)cc1,·,·,5,0,·,17,-3,-3
O=C1C(N2CCOCC2)=C(n2nnc3ccccc32)C(=O)c2ccccc21,-3,i,-16,-24,15,80*,7,110*
O=C(Nc1nccs1)c1ccc(-c2ccc(Cl)cc2)o1,0,i,4,-1,-3,-282,-7,22
CCc1ccc(NC(=S)N(CCCN2CCOCC2)Cc2ccco2)cc1,-1,i,4,7,34,-6,·,10
Cn1c(SCC(=O)Nc2sccc2C#N)nnc1-c1ccccc1,40,·,-5,7,42,·,-4,-32

# 6 consecutive records from above, for reference:
SMILES,eIF4H inh,Rce1 inh,MT1-MMP act inh,MT1-MMP act inh RFP,PABP FP inh,HIV Env fusion,Yeast UUG start,CSC inhib
Cc1ccccc1OCC(=O)OCC(=O)NC1CCCC(C)C1C (stereo unspecified),·,·,1,5,·,2,-22,·
O=C(Nc1ccc(Br)cc1)c1cccc2c1C(=O)N(C1CCCCC1)C2,-12,i,1,2,-1,11,-18,-4
O=C(Cc1ccccn1)c1ccccc1,·,i,1,5,·,-32,-6,-9
COc1ccc(C(=O)Nc2nc(N)n(-c3ccccc3)n2)cc1,2,i,3,4,-4,-12,·,-1
CCOC(=O)CCc1c(C)c2ccc(OCC(=O)OC(C)C)cc2oc1=O,-13,i,8,-4,-1,-4,0,-11
CC(C)(C)OC(=O)Nc1ccc([C@@H](NC(=O)OC(C)(C)C)C(=O)OC(C)(C)C)cc1,·,·,5,0,·,17,-3,-3

# The listing continues:
SMILES,eIF4H inh,Rce1 inh,MT1-MMP act inh,MT1-MMP act inh RFP,PABP FP inh,HIV Env fusion,Yeast UUG start,CSC inhib
CCC(C)Sc1cc(C)c(C#N)c2nc3ccccc3n12 (stereo unspecified),5,i,-8,-10,1,-8,-12,18
Cc1oc2c(c1C(=O)NCc1cccnc1)C(=O)c1ccccc1C2=O,-3,i,·,·,9,·,·,101*
O=C(CSc1nnc(-c2ccccc2)c(-c2ccccc2)n1)N1CCOCC1,-6,i,-3,0,10,·,7,-10
COc1ccc(OCC(=O)Nc2ccc(NC(=O)c3cccs3)c(OC)c2)cc1,-8,i,3,1,0,18,-18,-18
c1cc2c3c(cccc3c1)NC(c1ccc3c(c1)OCO3)N2,23,i,2,-1,26,-14,2,4
COc1ccc(NS(=O)(=O)c2cc(OCC(N)=O)c(C)cc2Cl)cc1,-23,i,2,1,1,12,·,14
Cn1c(=O)c2c3c(sc2n2cnnc12)CCC3,5,i,3,1,-7,·,-16,-10
CC(=O)c1ccc(Oc2cc(C)nc(-n3nc(C)cc3C)n2)cc1,2,i,3,-11,7,·,-11,-2
CC(C)CC(NC(=O)C1CCC(C)CC1)C(=O)NCc1ccccn1 (stereo unspecified),-2,·,-2,3,-4,-5,0,-12
CC1CC(=O)N(CC(=O)Nc2ccc(F)cc2F)c2ccccc2S1(=O)=O (stereo unspecified),3,i,3,4,14,3,4,-6
COc1cccc(-n2c(SCC(=O)NC3CCCCC3)nc3n[nH]c(C)c3c2=N)c1,3,i,3,-6,7,·,-11,·
O=c1ccc(/C=C/c2ccccc2)nn1Cc1ccccc1,-12,i,7,-1,-5,·,-10,-7
CCOc1ccc(N(CC(=O)NCCSc2ccccn2)S(C)(=O)=O)cc1,1,i,2,3,5,·,-8,-3
CCCOC(=O)c1ccc(NC(=O)c2cn(CC)c3nc(C)ccc3c2=O)cc1,-1,i,·,·,-9,·,·,·
CCN1CCc2c(sc(N)c2C(N)=O)C1,?,i,-9,4,?,·,-5,-8
COc1ccccc1NC(=O)Cn1c(O)c(N=NC(=O)c2ccccc2O)c2ccccc21,30,i,12,6,9,15,-15,1
